# Assay outcomes as filed in PubChem BioAssay.
# Mtb H37Rv = Mycobacterium tuberculosis H37Rv growth inhibition, cell based, confirmatory dose response (AID 1949). most inactive calls were filed without a number and no value below 0 was filed. inhibition, % at 10 µg/mL; hits with a dose series show IC50 in µg/mL. hit rate 1.6% among 100,000;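 active = confirmed in a dose series; inconclusive = about 50% or more but not retested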;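 also: bacteria grown 7 days with compound before Alamar blue readout; 0% = untreated bacteria and 100% = reference antibiotic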
# The depositor's hits bear a star; i = inactive; ? = inconclusive. These rows are one share of the data. The share of hits here may be higher or lower than overall.
SMILES,Mtb H37Rv
O=C(C1CCCN(S(=O)(=O)c2ccccc2)C1)N1CCCCC1 (stereo unspecified),i
Cc1cc2ncn(C3CC(=O)N(c4ccccc4F)C3=O)c2cc1C (stereo unspecified),i
O=C(CC(NCc1ccccn1)C(=O)O)Nc1ccc(Cl)cc1 (stereo unspecified),i
CS(=O)(=O)N(Cc1ccccc1)c1ccc(C(=O)Nc2ccccc2-c2ccccc2)cc1,i
COC(=O)c1ccc(C)c(S(=O)(=O)Nc2ccccc2)c1,i
O=C(OCc1ccc(Br)cc1)c1ccccc1S(=O)(=O)c1ccc([N+](=O)[O-])cc1,i
Cc1cc(Cl)c(S(=O)(=O)N2CCCc3ccccc32)cc1OCC(N)=O,i
CC(NC(=O)C1CCCCC1)C(=O)NC1=NCCS1 (stereo unspecified),i
O=S(=O)(c1ccc(Cl)c(Cl)c1)N1CCN(CCCOc2ccccc2Cl)CC1,5%
Cc1cccc(C)c1OCCOCC(O)CN1CCN(C)CC1 (stereo unspecified),i
CCCNS(=O)(=O)c1ccc(OCC(=O)OC)cc1,i
COc1ccc(NC(=O)c2c(NCc3cccs3)sc3c2CCC3)c(OC)c1,i

# Next section, starting with the last two of the part before.
SMILES,Mtb H37Rv
CCCNS(=O)(=O)c1ccc(OCC(=O)OC)cc1,i
COc1ccc(NC(=O)c2c(NCc3cccs3)sc3c2CCC3)c(OC)c1,i
COc1ccc(OC)c(-n2c(-c3cc(Cl)ccc3OC)n[nH]c2=S)c1,i
Cc1ccc(Nc2nc(Cl)nc(NC(C)(C)C)n2)cc1,40%
CCC(CC)c1nnc(NC(=O)Cc2ccc(Br)cc2)s1,i
O=c1c2ccccc2nc(-c2ccccc2Br)n1-c1cccc2ccccc12,6%
NC(=O)c1ccc(NC(=O)Nc2cc(Cl)ccc2Cl)cc1,i
COc1cccc(NC(=O)Cn2cc(C(=O)C3CC3)c3ccccc32)c1,i
CCOC(=O)N1CCc2c(sc(NC(=O)CN3CCOCC3)c2C(=O)Nc2ccccc2)C1,i
Cc1ccc(C)c(N(CC(=O)NCc2cccnc2)S(C)(=O)=O)c1,i
Cc1cccc2c1NC(=O)C2(O)CC(=O)c1ccc2c(c1)OCCO2 (stereo unspecified),i
Cc1sc(NCc2ccccc2O)nc1-c1ccccc1,i
CCOC(=O)C1CCN(C(=O)C23CC4CC(CC(C4)C2)C3)CC1,i
CCOC(=O)c1cc(-c2ccccc2)sc1NC(=S)Nc1ccc(C(=O)N2CCCCC2)cc1,i
CCOc1ccc(NC(=O)COc2ccc(SC)cc2)cc1,<0.1µg/mL*
O=C(c1cccc2ccccc12)N1CCN(c2ccc([N+](=O)[O-])c(N3CCOCC3)c2)CC1,i
O=C(Nc1ccc(Cl)cc1)c1ccc(-c2ccccc2Cl)o1,i
O=C(NC(=S)Nc1ccccc1C(=O)Nc1ccccc1)c1ccccc1Br,i
Cc1ccc(-c2nnc(N3CCN(C(=O)c4ccccc4)CC3)c3ccccc23)cc1,36%
CCCCN(CCCC)c1ncnc2nc[nH]c12,?
CCCC(=O)Nc1ccc(Cl)c(NC(=O)c2ccc(Cl)cc2Cl)c1,i
CC1CCCN(C(=O)COc2ccc(F)cc2)C1 (stereo unspecified),i
Cc1ccc(C)c(NC(=O)CSc2nc3sc(C)c(C)c3c(=O)n2-c2ccc(Cl)cc2)c1,8%
COC(=O)Cn1cnc2scc(-c3ccc(C)cc3)c2c1=O,i
Cc1ccc(CC2C(=O)N(CC(=O)O)C(=O)C2C)cc1 (stereo unspecified),i
CC(C)CNC(=O)c1ccccc1NC(=O)c1ccc(N(Cc2ccccc2)S(C)(=O)=O)cc1,7%
CC(=O)Oc1ccc(NC(=O)COc2ccccc2C)c(C(=O)O)c1,i
Cc1ccc(S(=O)(=O)N(C)c2ccccc2C(=O)Nc2ccc(Br)c(C)c2)cc1,i
NC(=O)c1cc(-c2ccccc2)sc1NC(=O)c1cccs1,i
COc1ccccc1C(=O)OCc1c(F)cccc1Cl,i
CC(C)C(C(=O)NC(C)(C)C)N1C(=O)c2ccccc2C1=O (stereo unspecified),i
Cn1c(CCNC(=O)c2cccs2)nnc1SCC(=O)Nc1c(F)cc(F)cc1Br,i
CC(C)(C)NC(=O)c1ccc2c(c1)C1C3CCC(C3)C1C(c1ccccc1)N2 (stereo unspecified),26%
CCN(CC)C(=O)CSc1nc2ccccc2c(=O)n1-c1ccc(C)cc1,i
CCS(=O)(=O)c1nc2ccccc2n1CC(N)=O,i
COC(=O)c1cc(Cc2ccccc2)sc1NC(=S)Nc1cccc(Cn2cc(Cl)cn2)c1,i
C=CCNC(=O)c1ccccc1NC(=O)CN(c1ccc(CC)cc1)S(=O)(=O)c1ccccc1,i
CC1(C)C(=O)OC(c2ccc([N+](=O)[O-])cc2)C2(CCCCC2)C1=O (stereo unspecified),i
O=C(c1ccc(Br)s1)N1CCN(C/C=C/c2ccccc2)CC1,i
COc1ccc(Br)cc1Cc1nc(C)cc(-n2cc(F)c(=O)[nH]c2=O)n1,i
COc1ccc(NC(=S)N(C)Cc2c(C)nn(C)c2C)c(OC)c1,i
CCn1c(SCC(=O)Nc2ccccc2F)nnc1-c1cccc(N)c1,i
COc1ccc(NC(=S)NN2CCN(C)CC2)cc1,i
O=C(Cc1ccccc1)Nc1ccc(N2CCN(Cc3ccccc3)CC2)cc1,0%
CCOC(=O)c1c(NC(=O)CN2C(=O)c3cccc4cccc2c34)sc2c1CCCC2,3%
CCN1C(=O)c2ccc(C(=O)Nc3cccc(C(F)(F)F)c3)cc2C1=O,i
COCc1nnc(NC(=O)CCCOc2ccc(Cl)cc2)s1,i
COc1cc(CNC23CC4CC(CC(C4)C2)C3)ccc1OCC(N)=O,i
O=C(CSc1nnc(-c2cnccn2)n1Cc1ccco1)c1ccccc1,1%
C=CCc1cccc(C)c1OCCN1CC(C)CC(C)C1 (stereo unspecified),i
O=C(NC(=S)Nc1ccccc1N1CCCC1)c1cccs1,?
O=[N+]([O-])c1cccc(CN2CCN(Cc3ccccc3Br)CC2)c1,1%
Cc1ccc(C2OC(=O)c3ccccc32)cc1 (stereo unspecified),i
O=C(Nc1cccc(-c2cn3ccsc3n2)c1)c1ccccc1F,i
Cc1ccc(CNC(=O)c2cc(Br)ccc2Cl)cc1,3%
CCOC(=O)N1CCN(C(=O)CCc2ccc(S(=O)(=O)NC(C)c3ccccc3)cc2)CC1 (stereo unspecified),i
C#CCOc1ccc(CNc2cc(Cl)ccc2C)cc1Cl,40%
COc1cccc(S(=O)(=O)NCc2ccc(C(=O)NCC3CCCO3)cc2)c1 (stereo unspecified),i
O=C(CC1NCCNC1=O)Nc1ccc(Oc2ccccc2)cc1 (stereo unspecified),i
Cc1nn(Cc2ccc(Cl)cc2Cl)c(C)c1NC(=S)NCC(C)C,0%
CCCCc1nc2ccccc2n1CCCC,1%
CN1C(=O)/C(=C2\SC(=S)N(C3CCS(=O)(=O)C3)C2=O)c2ccccc21 (stereo unspecified),i
# Next section
SMILES,Mtb H37Rv
Cc1ccc(S(=O)(=O)N(C)CC(=O)Nc2cc(C)ccc2C)cc1,4%
COc1ccc(OCCCC(=O)Nc2cccc(Cl)c2C)cc1,i
O=C(Oc1cccc([N+](=O)[O-])c1)c1sc2ccccc2c1Cl,i
COc1ccc(C(=O)NC(=S)N(C)Cc2ccccc2)cc1I,i
COC(=O)c1cn(C(=O)COc2ccc(Br)cc2C)c2ccccc12,i
CCc1c(O)nc(SCC(=O)Nc2ccc(Cl)cc2Cl)n(-c2ccccc2)c1=O,i
CCn1c(SCC(=O)Nc2ccc(Cl)cc2C)nnc1-c1ccc(OC)cc1,i
COc1cc(OC)cc(C(=O)NCc2ccccc2C)c1,6%
Cc1ccc(NC(=O)c2cc([N+](=O)[O-])ccc2NCc2ccccc2)cc1,i
CC(C)CC(=O)Nc1ccc2oc(-c3ccccc3)nc2c1,5%
Cc1ccc(-n2nnnc2SCC(=O)Nc2sc3c(c2C#N)CCCC3)cc1,i
CCOc1ccc(NC(=O)C2CC(=O)N3CCCN=C3S2)cc1 (stereo unspecified),i
Cc1cccc(N2CC(C(=O)Nc3ccc(Br)cc3)CC2=O)c1C (stereo unspecified),i
Cc1c(Cl)cccc1N1C(=O)CC(C2CCCO2)C1=O (stereo unspecified),i
O=C(CC1CCCCC1)Nc1ccc(Br)cc1,i
COc1ccc2c(=O)cc(C(F)F)oc2c1,i
CCOC(=O)CCc1c(C)c2cc(Cl)c(OCC(=O)N(C)C)cc2oc1=O,i
CCOc1ccc(Oc2c(C)oc3cc(O)ccc3c2=O)cc1,i
CCN(c1ccccc1)S(=O)(=O)c1ccc(NC(=S)NC(=O)Cc2ccccc2)cc1,47%
COc1ccc(OC)c(CN2CCN(Cc3cccc(Cl)c3)CC2)c1,0%
Clc1ccc(OCCn2nnc3ccccc32)cc1,13%
CCc1cccc2c(/C=C(/C#N)c3nc4ccccc4[nH]3)c[nH]c12,5%
CCc1ccc(N(CC(=O)Nc2ccccc2OC)S(=O)(=O)c2ccccc2)cc1,i
CC(C)(C)c1ccc(S(=O)(=O)Nc2cccnc2)cc1,i
NC(=O)C1CCN(C(=O)CN(c2cccc(Cl)c2)S(=O)(=O)c2ccccc2)CC1,i
N/C(=N\OC(=O)Cc1ccc(-c2ccccc2)cc1)c1cccc([N+](=O)[O-])c1,i
Cc1cc(C)c(C(N)=O)c(SCC(=O)c2cc(C)c(C)cc2C)n1,26%
CC(NC(=O)C12CC3CC(CC(C3)C1)C2)C(=O)NC(C)(C)CO (stereo unspecified),1%
Cc1cc(C)cc(C(=O)Nc2ccc(S(N)(=O)=O)cc2)c1,i
O=C(CN1CCNCC1)Nc1ccc(Cl)cc1Cl,i
COc1cc(C2C(C(=O)N3CCOCC3)=C(C)NC3=C2C(=O)CCC3)ccc1OC(C)=O (stereo unspecified),i
COc1cccc(C(=O)ON2C(=O)c3ccccc3C2=O)c1,1%
Cc1cc(CN2CCCCC2)oc1C(=O)O,i
Cc1ccc(N(CC(=O)Nc2c(C)n(C)n(-c3ccccc3)c2=O)S(C)(=O)=O)cc1Cl,i
O=C(Nc1cccnc1)C1CC(c2cccc(Br)c2)=NO1 (stereo unspecified),i
COc1cccc(NC(=O)C2C3C=CC(O3)C2C(=O)O)c1 (stereo unspecified),i
CCC(C(=O)Nc1ccccc1-c1ccccc1)c1ccccc1 (stereo unspecified),i
COc1ccc(-c2c3c(=O)n(C)c(=O)n(C)c3cn2-c2cccc(C)c2)cc1,10%
CCN(CC)C(=O)C1=C(C)NC(=S)NC1c1cc(Br)c(OC)cc1OC (stereo unspecified),0%
COC(=O)c1cccc(NC(=O)c2ccc3c(c2)C(=O)N(CC2CCCO2)C3=O)c1 (stereo unspecified),i
N#Cc1ccc(C(=O)Nc2ccc(CN3CCOCC3)cc2)c(F)c1,2%
Cc1c(C(=O)Nc2nc(-c3ccc(F)cc3F)cs2)cccc1[N+](=O)[O-],4%
O=C(Nc1cc(Cl)ccc1Cl)C1CCN(S(=O)(=O)c2cc(Cl)ccc2Cl)CC1,i
CC(=O)Oc1cccc(C(=O)Nc2ccc(-c3nc4ccccc4c(=O)o3)cc2)c1,41%
Cc1cccc(OCCCC(=O)Nc2ccc(F)cc2)c1,i
O=C(C1=C(O)C(=O)N(c2nncs2)C1c1ccccc1)c1cccs1 (stereo unspecified),i
Cc1ccc(S(=O)(=O)N(C)c2ccccc2N(C)S(=O)(=O)c2ccc(C)cc2)cc1,2%
COc1ccc(C)cc1NC(=O)CN(Cc1cccc(C)c1)S(=O)(=O)c1ccc(Cl)cc1,4%
FC(F)(F)c1ccc(Cl)c(Nc2nnc(-c3ccncc3)s2)c1,i
Cc1cc(C)c(S(=O)(=O)Nc2nc3ccccc3s2)c(C)c1,i
O=C(CC1NC2CCCCC2NC1=O)Nc1ccc(Oc2ccccc2)cc1 (stereo unspecified),0%
CCn1ccc(C(=O)Nc2ccc(C)c(C)c2)n1,i
Cc1cccn2c(=O)c3cc(S(=O)(=O)c4ccccc4)c(=N)n(Cc4ccccc4)c3nc12,1%
CC(C)N1CCN(Cc2ccc3ccccc3c2)CC1,i
O=C(O)C1CCN(c2ncnc3sc4c(c23)CCC4)CC1,i
COc1ccc(OC)c(NS(=O)(=O)c2ccc(NS(=O)(=O)c3ccc(OC)c(C)c3)cc2)c1,i
COc1cccc(NC(=O)Cc2nnc(SCC(=O)Nc3cc(C)c(C)cc3Br)n2C)c1,i
Nc1ccc(C(=O)c2ccccc2C(=O)O)cc1Cl,i
CCC(=O)Nc1ccc(Cl)c(NC(=O)c2ccc(Br)o2)c1,10%
COc1oc(-c2ccccc2)cc1C=O,0%
CCOC(=O)c1ccc(NC(=S)NNC(=O)Cc2cccs2)cc1,1%
Cc1c(Cl)cccc1NC(=S)N1CCN(C/C=C/c2ccccc2)CC1,i

# Entries from the list above that have two or more sulfur atoms (15):
SMILES,Mtb H37Rv
COc1ccc(NC(=O)c2c(NCc3cccs3)sc3c2CCC3)c(OC)c1,i
CCOC(=O)c1cc(-c2ccccc2)sc1NC(=S)Nc1ccc(C(=O)N2CCCCC2)cc1,i
Cc1ccc(C)c(NC(=O)CSc2nc3sc(C)c(C)c3c(=O)n2-c2ccc(Cl)cc2)c1,8%
NC(=O)c1cc(-c2ccccc2)sc1NC(=O)c1cccs1,i
Cn1c(CCNC(=O)c2cccs2)nnc1SCC(=O)Nc1c(F)cc(F)cc1Br,i
COC(=O)c1cc(Cc2ccccc2)sc1NC(=S)Nc1cccc(Cn2cc(Cl)cn2)c1,i
O=C(NC(=S)Nc1ccccc1N1CCCC1)c1cccs1,?
CN1C(=O)/C(=C2\SC(=S)N(C3CCS(=O)(=O)C3)C2=O)c2ccccc21 (stereo unspecified),i
Cc1ccc(-n2nnnc2SCC(=O)Nc2sc3c(c2C#N)CCCC3)cc1,i
CCN(c1ccccc1)S(=O)(=O)c1ccc(NC(=S)NC(=O)Cc2ccccc2)cc1,47%
O=C(C1=C(O)C(=O)N(c2nncs2)C1c1ccccc1)c1cccs1 (stereo unspecified),i
Cc1ccc(S(=O)(=O)N(C)c2ccccc2N(C)S(=O)(=O)c2ccc(C)cc2)cc1,2%
Cc1cc(C)c(S(=O)(=O)Nc2nc3ccccc3s2)c(C)c1,i
COc1ccc(OC)c(NS(=O)(=O)c2ccc(NS(=O)(=O)c3ccc(OC)c(C)c3)cc2)c1,i
CCOC(=O)c1ccc(NC(=S)NNC(=O)Cc2cccs2)cc1,1%
